Compound activity (PubChem BioAssay)
MT1-MMP reporter: inhibitors of MT1-MMP promoter transcription, cell-based, luciferase reporter, luminescence (AID 618); MT1-MMP promoter luciferase reporter cells, luminescence; calls from a first round at 10 µM; hits with a dose series show EC50 in µM; 87,000 tested, 0.62% active;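 active = over half of the reporter light lost at 10 µM or EC50 under 50 µM; inactive = the rest and hits that failed the dose series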;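 note: actives suppress MT1-MMP promoter-driven transcription so potencies describe inhibitors; HT1080 fibrosarcoma cells; overnight exposure; toxic or luciferase-blocking compounds were not removed from the actives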
Hsc70 ATP site: Hsc70 inhibitors, probe displacement, primary screen, biochemical, fluorescence polarization (AID 568); Heat shock cognate 71 kDa protein (Homo sapiens); Hsc70 fluorescence polarization, probe displacement; higher % means a stronger effect; strong numbers were not always called active; 83,000 tested, under 10 active; displacement, % at 20 µM; hits with a dose series show IC50 in µM;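 active = displacement above 50% without optical interference and an IC50 on retest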;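 note: ATPase domain with a fluorescein-tagged ATP probe; 0% = vehicle and 100% = excess ADP; read after one hour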
WNV NS2B-NS3 inh: inhibitors of WNV NS2B-NS3 protease, primary screen, biochemical, fluorogenic substrate | AID 577, 2007 | 65,000 tested, 0.18% active | z-score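 (tested at a level between 10 and 100 µM)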 | fluorogenic substrate Ex360/Em465; stronger effect = lower value;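 active = z-score at -3 or under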;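 note: score is relative to mean and spread of the compound wells of a plate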
Target sequence (P06935 1371-1501 limits assumed): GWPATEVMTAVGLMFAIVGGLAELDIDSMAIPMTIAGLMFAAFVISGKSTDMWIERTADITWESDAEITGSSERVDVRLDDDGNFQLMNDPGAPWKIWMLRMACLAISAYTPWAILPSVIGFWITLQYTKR
Target sequence (P06935 1502-1679 limits assumed): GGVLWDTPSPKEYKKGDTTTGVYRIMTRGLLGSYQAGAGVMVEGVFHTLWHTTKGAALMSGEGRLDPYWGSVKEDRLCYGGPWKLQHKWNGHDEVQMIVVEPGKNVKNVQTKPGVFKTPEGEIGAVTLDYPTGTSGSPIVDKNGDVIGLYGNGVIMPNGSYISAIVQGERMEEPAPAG
* marks the source's active call; other numbers are inactive results; i = inactive; . = not tested or not shown. These rows are one share of the data; the hit share may differ from the screen's.

> CCOC(=O)C1=C(N)Oc2ccccc2C12C(=O)N(CC(=O)OC)C(CC(=O)OC)=C2C(=O)OC (centres undefined)
  MT1-MMP reporter = i
  Hsc70 ATP site = -0.3%
  WNV NS2B-NS3 inh = .

> O=C1NC(=O)N(C2CCCCC2)C(=O)C1C1c2ccccc2C(=O)N1Cc1ccccc1 (centres undefined)
  MT1-MMP reporter = i
  Hsc70 ATP site = -1.1%
  WNV NS2B-NS3 inh = 0.06

> Cc1cccc(C2=NCC(=O)N(CC(=O)NCc3ccco3)c3sc4c(c32)CCCC4)c1
  MT1-MMP reporter = i
  Hsc70 ATP site = 0.1%
  WNV NS2B-NS3 inh = 0.39

> CCOC(=O)c1c(C)n(COCCO)c2ccc(O)cc12
  MT1-MMP reporter = i
  Hsc70 ATP site = 4.3%
  WNV NS2B-NS3 inh = 0.43

> COc1ccc(CC2C(=O)N(c3ccccc3)C(=O)N(c3ccccc3)C2=O)c(OC)c1
  MT1-MMP reporter = i
  Hsc70 ATP site = 0.6%
  WNV NS2B-NS3 inh = .

> O=C(c1cc2c(s1)CCCC2)N1CCC2(CC1)OCCO2
  MT1-MMP reporter = i
  Hsc70 ATP site = 0.7%
  WNV NS2B-NS3 inh = -0.67

> CC(C)n1nnnc1CN1CCN(C)CC1
  MT1-MMP reporter = i
  Hsc70 ATP site = 7.0%
  WNV NS2B-NS3 inh = -0.5

> O=C(Cc1ccccc1)N1CCN(Cc2c[nH]c3ccccc23)CC1
  MT1-MMP reporter = i
  Hsc70 ATP site = -8.3%
  WNV NS2B-NS3 inh = -1.2

> C=CCn1c(O)c(C(C)=NCc2cc(OC)cc(OC)c2)c(=O)[nH]c1=O
  MT1-MMP reporter = i
  Hsc70 ATP site = -5.6%
  WNV NS2B-NS3 inh = 0.03

> CC(=NCc1cccnc1)c1c(O)n(-c2ccc(C)cc2)c(=O)[nH]c1=O
  MT1-MMP reporter = i
  Hsc70 ATP site = -5.3%
  WNV NS2B-NS3 inh = -0.16

> CCOC(=O)c1c(N)n(Cc2ccco2)c2nc3ccccc3nc12
  MT1-MMP reporter = i
  Hsc70 ATP site = 16%
  WNV NS2B-NS3 inh = 4.2

> O=c1cccc2n1CC1CC2CN(c2ncnc3c2cnn3-c2ccccc2)C1 (centres undefined)
  MT1-MMP reporter = i
  Hsc70 ATP site = 2.2%
  WNV NS2B-NS3 inh = -0.02

> CC1(C)C2CC=C(CN3CCOCC3)C1C2 (centres undefined)
  MT1-MMP reporter = i
  Hsc70 ATP site = -12%
  WNV NS2B-NS3 inh = 0.14

> CCOC(=O)c1c(C)n(Cc2ccccc2)c2ccc(OCC(O)Cn3nc(C)nc3C)cc12 (centres undefined)
  MT1-MMP reporter = i
  Hsc70 ATP site = 0.4%
  WNV NS2B-NS3 inh = -1.2

> CC(C)CNC(=O)c1c(N)n(Cc2ccc3c(c2)OCO3)c2nc3ccccc3nc12
  MT1-MMP reporter = i
  Hsc70 ATP site = -1.4%
  WNV NS2B-NS3 inh = .

Quoted from the listing:
CCOC(=O)c1c(C)n(Cc2ccccc2)c2ccc(OCC(O)Cn3nc(C)nc3C)cc12 (centres undefined) – WNV NS2B-NS3 inh = -1.2
CCOC(=O)c1c(C)n(COCCO)c2ccc(O)cc12 – WNV NS2B-NS3 inh = 0.43
O=C1NC(=O)N(C2CCCCC2)C(=O)C1C1c2ccccc2C(=O)N1Cc1ccccc1 (centres undefined) – Hsc70 ATP site = -1.1%
CC(C)CNC(=O)c1c(N)n(Cc2ccc3c(c2)OCO3)c2nc3ccccc3nc12 – Hsc70 ATP site = -1.4%
CC(=NCc1cccnc1)c1c(O)n(-c2ccc(C)cc2)c(=O)[nH]c1=O – Hsc70 ATP site = -5.3%
CCOC(=O)C1=C(N)Oc2ccccc2C12C(=O)N(CC(=O)OC)C(CC(=O)OC)=C2C(=O)OC (centres undefined) – Hsc70 ATP site = -0.3%

Returning to the listing with the 2 entries that preceded the break.
> CCOC(=O)c1c(C)n(Cc2ccccc2)c2ccc(OCC(O)Cn3nc(C)nc3C)cc12 (centres undefined)
  MT1-MMP reporter = i
  Hsc70 ATP site = 0.4%
  WNV NS2B-NS3 inh = -1.2

> CC(C)CNC(=O)c1c(N)n(Cc2ccc3c(c2)OCO3)c2nc3ccccc3nc12
  MT1-MMP reporter = i
  Hsc70 ATP site = -1.4%
  WNV NS2B-NS3 inh = .

> COc1ccc(CCNCc2ccc(F)cc2)cc1OC
  MT1-MMP reporter = i
  Hsc70 ATP site = 3.3%
  WNV NS2B-NS3 inh = .

> O=C(Cn1ncc2ccccc21)N1CCC2(CC1)OCCO2
  MT1-MMP reporter = i
  Hsc70 ATP site = -1.1%
  WNV NS2B-NS3 inh = -1.4

> Oc1ccc(Cl)cc1CN1CCN(Cc2ccccc2)CC1
  MT1-MMP reporter = i
  Hsc70 ATP site = -0.3%
  WNV NS2B-NS3 inh = .

> Cc1nnc(SCc2nc3ccccc3c(=O)n2-c2ccccc2Cl)n1N
  MT1-MMP reporter = i
  Hsc70 ATP site = -1.3%
  WNV NS2B-NS3 inh = -2.2

> CN1C(=O)N(C)C(=O)C2(Cc3c(nc4ccccn4c3=O)N3CCC(Cc4ccccc4)CC32)C1=O (centres undefined)
  MT1-MMP reporter = i
  Hsc70 ATP site = -6.4%
  WNV NS2B-NS3 inh = 0.41

> CCC(C)(C)n1nnnc1C(c1cccs1)N1CC=C(c2ccc(F)cc2)CC1 (centres undefined)
  MT1-MMP reporter = i
  Hsc70 ATP site = -5.2%
  WNV NS2B-NS3 inh = -0.99

> ClCCNc1nc2ccc(Cl)cc2[nH]1
  MT1-MMP reporter = i
  Hsc70 ATP site = 0.7%
  WNV NS2B-NS3 inh = .

> N=c1c2c(n(Cc3ccc(Cl)cc3Cl)c3c1CCC3)CCCC2
  MT1-MMP reporter = i
  Hsc70 ATP site = -3.6%
  WNV NS2B-NS3 inh = 1.3

> O=C1NC(=O)C(C/C=C/c2ccccc2)C(=O)N1
  MT1-MMP reporter = i
  Hsc70 ATP site = -3.2%
  WNV NS2B-NS3 inh = 0.85

> CCn1c(O)c(C(=O)CC2NCCc3ccccc32)c(=O)n(CC)c1=S (centres undefined)
  MT1-MMP reporter = i
  Hsc70 ATP site = -32%
  WNV NS2B-NS3 inh = 0.81

> Cc1ccc2c(c1)C1CN(C)CCC1N2C(=O)Cc1cccs1 (centres undefined)
  MT1-MMP reporter = i
  Hsc70 ATP site = 4.1%
  WNV NS2B-NS3 inh = -1.4

> CCN1CCN(CC(=O)c2c(C)n(Cc3ccccc3)c3ccc(OC)cc23)CC1
  MT1-MMP reporter = i
  Hsc70 ATP site = 2.5%
  WNV NS2B-NS3 inh = .

> O=C1CC[C@@]2(O)[C@H]3Cc4ccc(O)c5c4[C@@]2(CCN3CC2CC2)[C@H]1O5
  MT1-MMP reporter = i
  Hsc70 ATP site = 3.9%
  WNV NS2B-NS3 inh = 0.12

> O=c1[nH]c(=O)n(-c2cccc(Cl)c2)c(O)c1/C=N/c1ccccn1
  MT1-MMP reporter = i
  Hsc70 ATP site = 1.0%
  WNV NS2B-NS3 inh = 0.43

> COc1cccc(-c2cc(C(F)(F)F)n3nc(C(=O)N4CCC5(CC4)OCCO5)cc3n2)c1
  MT1-MMP reporter = i
  Hsc70 ATP site = 7.9%
  WNV NS2B-NS3 inh = -0.19

(more compounds)
The line under a structure holds: MT1-MMP reporter | Hsc70 ATP site | WNV NS2B-NS3 inh
> CC(C)C[C@H](NC(=O)[C@@H]1CCCN1C(=O)[C@@H](N)Cc1ccc(O)cc1)C(=O)NCC(N)=O
 : i | -5.7% | 0.24
> CC1(C)CN=C(NCc2ccccc2Cl)S1
 : i | 0.1% | -0.1
> O=P1(NC2CCCC2)COc2ccccc2OC1
 : i | -2.1% | -1
> O=C(Cn1ncc2c3ccccc3n(Cc3ccccc3F)c2c1=O)N1CCC2(CC1)OCCO2
 : i | -6.0% | -0.87
> CN1CCC(OC(=O)C2c3ccccc3Oc3ccccc32)CC1
 : i | 0.6% | -0.04
> COc1cccc(N2CCN(Cc3ccc(Cl)cc3)CC2)c1
 : i | 7.8% | -0.71
> C[C@H]1CCCC(=O)CCC/C=C/c2cc(O)cc(O)c2C(=O)O1
 : i | 4.7% | -0.07
> O=C(c1ccc(CS(=O)(=O)c2ccccc2)o1)N1CCC2(CC1)OCCO2
 : i | 1.6% | 0.49
> CCCCn1c(=O)c(C(=O)NCc2ccncc2)c(O)c2ccccc21
 : i | -2.3% | 1.2
> O=c1[nH]c(=O)n(C2CCCCCC2)c(O)c1C=NCC1CCCO1 (centres undefined)
 : i | -4.9% | 0.56
> CCCCc1nc2ccccc2c(=O)n1-c1ccc(O)cc1
 : i | 6.8% | -0.88
> O=C1CC(N2CCC(n3c(=O)[nH]c4ccccc43)CC2)C(=O)N1Cc1ccccc1 (centres undefined)
 : i | -8.4% | -0.82
> CCOc1ccccc1N=C1SCCCN1C
 : i | -3.1% | -0.93
> O=C(CN1CCN(Cc2cccc(Cl)c2)C1=O)N1CCC2(CC1)OCCO2
 : i | 4.0% | 0.12
> FC(F)(F)C1=NC(C(F)(F)F)=NP(N2CCOCC2)(N2CCOCC2)=N1
 : i | 0.3% | -0.44
> O=C(O)C12C3CCCC1C32c1ccccc1 (centres undefined)
 : i | -0.8% | 0.91
> OC(Cc1ccccc1)(c1ccccc1)C1CN2CCC1CC2 (centres undefined)
 : i | -2.6% | -0.71
> CC(C)C12CN3CC(C(C)C)(CN(C1)C3c1cccnc1)C2=O (centres undefined)
 : i | -4.8% | .
> CCCCn1c(O)c(C(CC)=NCCN2CCOCC2)c(=O)[nH]c1=O
 : i | -3.6% | .
> Cc1cccc(-n2c(C)nc3ccccc3c2=O)n1
 : i | 2.6% | .

Retrieved one by one from the list above (two):
The line under a structure holds: MT1-MMP reporter | Hsc70 ATP site | WNV NS2B-NS3 inh
> CN1CCC(OC(=O)C2c3ccccc3Oc3ccccc32)CC1
 : i | 0.6% | -0.04
> O=P1(NC2CCCC2)COc2ccccc2OC1
 : i | -2.1% | -1

(listing goes on)
The line under a structure holds: MT1-MMP reporter | Hsc70 ATP site | WNV NS2B-NS3 inh
> O=C(Cc1ccc(Br)cc1)N1CCN(Cc2ccccc2)CC1
 : i | -4.7% | 2.2
> Cn1c(O)c(C=NCCN2CCNCC2)c(=O)n(C)c1=O
 : i | -0.4% | .
> COc1ccc(CNCC(=O)N2CCC3(CC2)OCCO3)cc1
 : i | -2.2% | -0.84
> COc1cc(OC)cc(-n2nc(C(=O)N3CCC4(CC3)OCCO4)c3ccccc3c2=O)c1
 : i | 3.8% | 0.76
> CCCCSP1(=S)NCCCO1 (centres undefined)
 : i | 1.2% | 0.79
> O=c1[nH]c(=O)n(CCC2=CCCCC2)c(O)c1C=Nc1cccc(F)c1
 : i | -0.3% | .
> CC(C)C(=O)N1CCN(CCN=Cc2c(O)n(C)c(=O)n(C)c2=O)CC1
 : i | -2.6% | 1.1
> CN(C)CC#CCC(O)(c1ccccc1)C1CCCC1 (centres undefined)
 : i | -8.2% | .
> CC(=O)C1(c2ccccc2)CCNCC1
 : i | 6.2% | -0.17

6 compounds from above with just MT1-MMP reporter.
| mol | MT1-MMP reporter |
| --- | --- |
| CC(C)C(=O)N1CCN(CCN=Cc2c(O)n(C)c(=O)n(C)c2=O)CC1 | i |
| CC(=O)C1(c2ccccc2)CCNCC1 | i |
| COc1cc(OC)cc(-n2nc(C(=O)N3CCC4(CC3)OCCO4)c3ccccc3c2=O)c1 | i |
| Cn1c(O)c(C=NCCN2CCNCC2)c(=O)n(C)c1=O | i |
| CCCCSP1(=S)NCCCO1 (centres undefined) | i |
| O=C(Cc1ccc(Br)cc1)N1CCN(Cc2ccccc2)CC1 | i |
